High-throughput results deposited in PubChem BioAssay by National Center for Advancing Translational Sciences (NCATS).
Rango complex inh = inhibitors of Rango-importin beta complex formation. Rango CFP/YFP FRET sensor + importin beta, 45 min. Potency, µM (top dose mostly 92.2 µM), for the others: at the highest dose inhibition of complex formation. 340,000 compounds, 0.031% hits. Q14974; active = rising FRET ratio curve, often small or poorly fitted; inconclusive = mostly compound fluorescence or quenching in the first reads; inactive = flat curves in all reads;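 further: potency means the concentration at half of the fitted maximal effect; 0% = DMSO wells and 100% = buffer wells lacking importin beta; nearly all actives have a fitted effect of over 15% in size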
Target sequence (Q14974 whole entry, looked up): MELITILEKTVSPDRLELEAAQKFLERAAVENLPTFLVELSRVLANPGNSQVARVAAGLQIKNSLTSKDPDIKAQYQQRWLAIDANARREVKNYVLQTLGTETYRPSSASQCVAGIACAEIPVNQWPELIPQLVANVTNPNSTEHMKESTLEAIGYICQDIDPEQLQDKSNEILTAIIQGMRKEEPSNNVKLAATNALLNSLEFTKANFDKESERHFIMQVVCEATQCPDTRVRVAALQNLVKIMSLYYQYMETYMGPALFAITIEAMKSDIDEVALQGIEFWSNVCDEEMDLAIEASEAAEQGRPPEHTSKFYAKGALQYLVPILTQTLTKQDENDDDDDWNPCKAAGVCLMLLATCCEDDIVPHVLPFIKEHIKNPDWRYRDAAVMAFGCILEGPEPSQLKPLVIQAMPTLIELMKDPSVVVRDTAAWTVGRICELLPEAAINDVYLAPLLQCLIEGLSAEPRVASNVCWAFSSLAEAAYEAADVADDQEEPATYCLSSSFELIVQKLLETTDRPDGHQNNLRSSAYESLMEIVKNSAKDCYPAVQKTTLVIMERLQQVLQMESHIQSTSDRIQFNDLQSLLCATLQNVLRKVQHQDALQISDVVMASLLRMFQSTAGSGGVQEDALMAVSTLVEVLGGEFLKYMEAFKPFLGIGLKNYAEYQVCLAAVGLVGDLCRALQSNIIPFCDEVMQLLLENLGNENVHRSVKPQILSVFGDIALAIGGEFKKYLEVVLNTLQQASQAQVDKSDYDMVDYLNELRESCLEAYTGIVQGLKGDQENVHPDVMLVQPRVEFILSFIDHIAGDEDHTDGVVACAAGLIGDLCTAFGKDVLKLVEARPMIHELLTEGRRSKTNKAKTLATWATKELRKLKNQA
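FRET biosensor (snurportin 1 IBB flanked by EYFP and cerulean), 50 nM, with compound 5 min, then 0.125 microM importin beta in PBS, 1 mM DTT, 0.02% Tween-20, 0.1% BSA. CFP/YFP ratio read after 45 min at room temperature; pre-read flags interference.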
Rango dissoc inh = inhibitors of RanGTP-induced Rango-importin beta complex dissociation; 340,000 compounds, 0.071% hits; AID 540253; Biochemical FRET Rango-importin beta, RanGTP-induced dissociation; Potency, µM (doses to about 46.1 µM), for inactives: at the top dose activity change, negative = inhibition; O95149+P62826; active means falling FRET ratio curve, often poorly fitted, with flat reads before Ran was added; inconclusive means other falling curves, or compound fluorescence or quenching; inactive means flat or rising ratio curve;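 further: potency means the concentration at half of the fitted maximal effect; % of control where 0% means no effect; nearly all actives have a fitted effect of over 45% in size; -100% = wells without RanGTP and RCC1; the record marks most hits as doubtful in a second field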
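FRET read at 45 min, room temperature: inhibitors block the CFP/YFP signal rise when RanGTP (0.6 uM Ran, 2 mM GTP, 0.2 uM RCC1) frees Rango (0.1 uM) from importin beta (0.25 uM). Pre-read after 5 min compound exposure flags interference.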
GLA inh pH 4.5 = inhibitors of human alpha-galactosidase A at pH 4.5 | AID 1467 | purified enzyme, 4-MU-alpha-Gal fluorescence, pH 4.5 | P06280 | activity change, negative = inhibition, % at 105 µM | 230,000 tested, under 10 active; inconclusive = small, poorly fitted or top-dose-only inhibition, or a rising curve; inactive = flat fitted curve, though single readings scatter; no compound was filed as active;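 further: 0% = full activity with enzyme and -100% = basal without enzyme; dose as in the result columns while the protocol names 77 µM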
miR-21 reporter = miR-21 reporter, rising signal. 340,000 tested, under 10 active. Potency, µM (doses to about 38.3 µM), without a hit: top-dose reporter change, positive = more light. HeLa miR-21 FLuc reporter, luciferase, 48 h; active = well fitted rising curve with a large enough effect; inconclusive = small, poorly fitted or top-dose-only effect; inactive = no such curve, though single readings can be large or run the other way;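 further: % of control where 0% means no effect; miR-21 action dims this reporter so a rising signal means less miR-21 action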
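HeLa cells stably expressing CMV-driven firefly luciferase with a downstream miR-21 binding sequence, endogenously expressing miR-21, were treated with titrations (up to about 40uM final) for 48 hours at 37 degree Celsius. Luciferase luminescence was read after lysis.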
An asterisk follows results filed as active; ? = inconclusive; . = no result given. Some of the compounds tested; rates above refer to the full screens.

SMILES	Rango complex inh	Rango dissoc inh	GLA inh pH 4.5	miR-21 reporter
CC1CCCCN1C(=O)Cn1cc(C(=O)c2ccco2)c2ccccc21 (stereo not drawn)	-2.9%	7%	-9	-7%
CCN(CC)C(=O)c1sc2nc(-c3cccs3)cc(-c3ccc(Cl)cc3)c2c1N	?	?	-12	-2%
S=C(c1ccc(-c2cc(Cl)ccc2Cl)o1)N1CCCCC1	?	0%	5	-12%
O=C(CN1C(=O)C2C3C=CC(C3)C2C1=O)NCC1COc2ccccc2O1 (stereo not drawn)	2.2%	1%	4	0%
C#CCOCCOCCOCCNc1nc(N2CCN(C(=O)CCCCCCCCCCNC(=O)[C@H](CO)n3cc(CCCSC)nn3)CC2)nc(N2CCN(C(=O)CCCCCCCCCCNC(=O)[C@H](CO)n3cc(CCCSC)nn3)CC2)n1	0.6%	1%	.	.
CCCC12CN(C(=O)c3ccco3)CC(CCC)(CN(C(=O)c3ccco3)C1)C2=O	3.4%	40%	.	3%
COc1ccc(-c2ccc([C@H]3[C@@H]4C=CCC[C@@]4(C)C(=O)N3Cc3ccccc3)c(F)c2)cc1OC	?	16%	-11	20%
COc1cc(-n2c(C)nc3cc(C(=O)NCc4ccco4)ccc32)cc(OC)c1OC	-0.5%	-12%	6	-19%
CCCCCCC1CC(CSc2ncn[nH]2)OC1=O (stereo not drawn)	-1.4%	12%	13	-6%
Cc1ccc(C(=O)CN2C(=O)C(=O)N(Cc3ccccc3)C2=O)cc1	-1.1%	2%	5	0%

An excerpt from above in order of their number in Rango dissoc inh, highest first.
canonical_smiles | Rango dissoc inh
CCCC12CN(C(=O)c3ccco3)CC(CCC)(CN(C(=O)c3ccco3)C1)C2=O | 40%
CCCCCCC1CC(CSc2ncn[nH]2)OC1=O (stereo not drawn) | 12%
CC1CCCCN1C(=O)Cn1cc(C(=O)c2ccco2)c2ccccc21 (stereo not drawn) | 7%
Cc1ccc(C(=O)CN2C(=O)C(=O)N(Cc3ccccc3)C2=O)cc1 | 2%
COc1cc(-n2c(C)nc3cc(C(=O)NCc4ccco4)ccc32)cc(OC)c1OC | -12%

(list continues)
SMILES	Rango complex inh	Rango dissoc inh	GLA inh pH 4.5	miR-21 reporter
Cc1nc(SCC(=O)N2CCOCC2)c2c(=O)n(C)c(=O)n(C)c2n1	2.9%	0%	8	6%
Cc1ccccc1NP(=O)(c1ccccc1)c1nc2ccccc2s1 (stereo not drawn)	0.0%	?	-7	-2%
CCOc1ccc(CN2C(=O)CCC2(C)C(=O)NCc2cccnc2)cc1 (stereo not drawn)	-0.6%	0%	4	-4%
C=CCNC(=O)c1onc(CSc2nc3ccccc3[nH]2)c1C(=O)NCC=C	1.2%	1%	.	4%
Cc1cccc(N2C(=O)CC(Sc3ncn[nH]3)C2=O)c1 (stereo not drawn)	0.0%	-19%	-4	1%
O=C(O)c1cccc(S(=O)(=O)Nc2ccc(Oc3ccccc3)cc2)c1	-3.1%	1%	.	.
CCN1CCN(S(=O)(=O)c2ccc(C)c([N+](=O)[O-])c2)CC1	3.2%	5%	0	-7%
CC(C)c1ccc(CNC(=O)CCc2ccccc2)cc1	0.4%	-6%	-22	-10%
CCOC(=O)c1c(-c2ccc(C)o2)csc1NC(=O)CN1CCN(CC)CC1	-0.8%	-3%	6	-9%
CCCCCN(C(=O)CCC(=O)OCCOc1cccc(C)c1)c1c(N)n(CCCC)c(=O)[nH]c1=O	-3.6%	-3%	.	.

An excerpt from above with just Rango complex inh.
mol	Rango complex inh
Cc1nc(SCC(=O)N2CCOCC2)c2c(=O)n(C)c(=O)n(C)c2n1	2.9%
Cc1ccccc1NP(=O)(c1ccccc1)c1nc2ccccc2s1 (stereo not drawn)	0.0%
CCOc1ccc(CN2C(=O)CCC2(C)C(=O)NCc2cccnc2)cc1 (stereo not drawn)	-0.6%
C=CCNC(=O)c1onc(CSc2nc3ccccc3[nH]2)c1C(=O)NCC=C	1.2%

(next part)
SMILES	Rango complex inh	Rango dissoc inh	GLA inh pH 4.5	miR-21 reporter
CCCCN(C(=O)COC(=O)COc1c(C)cc(C)cc1C)c1c(N)n(CCC)c(=O)[nH]c1=O	0.0%	10%	.	.
O=C(Nc1ccccc1)OCCc1ccccn1	-2.6%	-17%	.	.
COc1ccccc1C(=O)N1CCN=C1SC	0.3%	2%	-2	-1%
Cc1cccc(NC(=O)CCC2CCN(C(=O)C3CC=CCC3)CC2)c1 (stereo not drawn)	?	-6%	.	7%
CSc1nsc(SCC(=O)N2CCCc3ccccc32)n1	0.6%	4%	-3	-10%
CC1Cn2c(nnc2-c2cccc(Cl)c2)S1 (stereo not drawn)	-0.7%	1%	1	2%
COC(=O)c1c(C)noc1-c1cc(C)on1	3.9%	-1%	2	-4%
COc1cc(S(=O)(=O)N2CCN=C2c2ccccc2)ccc1Cl	2.9%	-10%	.	-14%
CN1C(=O)CSc2ccc(NC(=O)N3CCOCC3)cc21	-2.5%	-3%	10	-4%
O=C(CSCc1ccc(Cl)cc1)Nc1cc([N+](=O)[O-])ccc1O	-0.1%	-6%	-4	10%
CCCCN1C(=O)C(O)=C(C(C)=O)C1c1ccccc1 (stereo not drawn)	1.2%	-2%	-1	1%
O=C1C(Cl)=C(N2CCCCC2)C(=O)C(Cl)=C1c1cnc(N2CCCCC2)s1	-2.5%	-10%	2	-17%
O=C(NCCCn1ccnc1)c1ccc(F)cc1	-1.6%	14%	.	1%
Cc1ccc2nc(SC(C(=O)c3ccccc3)c3ccccc3)nc(C)c2c1 (stereo not drawn)	2.8%	?	-1	1%
Nc1ccc(C(=O)c2cccs2)cc1	3.3%	2%	-16	-37%
COc1ccc(Cn2c(-c3ccc(OC)cc3)nc3c(c(=O)c4ccccc4n3C)c2=O)cc1	.	.	-5	-6%
Cc1cc(C)cc(N(CCC#N)C(=O)COC(=O)Cn2[nH]c(=O)c3ccccc3c2=O)c1	?	2%	.	.
Cc1ccc(Nc2ccc([N+](=O)[O-])nc2[N+](=O)[O-])cc1	0.3%	11%	-2	7%
Cc1cc(-c2n[nH]c(=S)n2-c2ccccc2)nn1C	-2.2%	-16%	1	-6%
Cc1cc(C)cc(NC(=O)CSc2ncc(S(=O)(=O)c3ccccc3)c(=O)[nH]2)c1	.	.	-7	3%

Some values from above.
Rango dissoc inh with `Cc1cc(C)cc(N(CCC#N)C(=O)COC(=O)Cn2[nH]c(=O)c3ccccc3c2=O)c1` : 2%
Rango complex inh with `Nc1ccc(C(=O)c2cccs2)cc1` : 3.3%

Remaining list, next part
SMILES	Rango complex inh	Rango dissoc inh	GLA inh pH 4.5	miR-21 reporter
O=C(OCCN1C(=O)c2cccc3c(N4CCOCC4)ccc(c23)C1=O)c1ccc(Cl)cc1Cl	?	?	-3	3%
Cc1c(NC(=O)c2ccc3ncccc3c2)c(=O)n(-c2ccccc2)n1C	-1.1%	6%	-2	-2%
CC(=O)c1cc2c(cc1NC(=O)CN1CCCCC1C)OCO2 (stereo not drawn)	0.0%	12%	-2	-7%
CCOC(=O)N1CCC(NC(=O)CS(=O)(=O)Cc2nc(-c3ccc(OC)cc3)oc2C)CC1	0.7%	?	.	-1%
CC1CCC(NC(=O)CCS(=O)(=O)c2ccc3c(c2)CCN3C(=O)C2CC2)CC1 (stereo not drawn)	2.3%	-10%	.	-2%
CCn1c2ccccc2c2nn(C)c(=N)nc21	0.7%	-15%	-2	4%
Cc1ccc(N(CC(=O)NCC(O)c2ccccc2)S(=O)(=O)c2ccc(C)cc2)cc1 (stereo not drawn)	-1.9%	11%	.	2%
CC(C)c1nc2oc3c(N(C)CCO)ncnc3c2c2c1CCC2	0.2%	-1%	6	-14%
CCCOC(=O)NC1CCS(=O)(=O)C1 (stereo not drawn)	-1.6%	3%	-3	-7%
Cc1ccc(C(C)C)cc1S(=O)(=O)NCc1cccnc1	5.1%	7%	-17	-2%
CCCCCCNC(=O)CNC(=S)N(Cc1cccs1)C1CCCCC1	-0.6%	0%	.	3%
COc1ccc(S(=O)(=O)Nc2ccccc2C(=O)N2CCOCC2)cc1C	4.3%	-4%	.	-1%
C[C@H](CO)N1C[C@H](C)[C@@H](CN(C)C(=O)NC2CCCCC2)Oc2c(NC(=O)Nc3ccc(C(F)(F)F)cc3)cccc2C1=O	-0.6%	16%	.	.

Shown with two lines to a compound: entries from further up.
Each structure is followed by: Rango complex inh | Rango dissoc inh | GLA inh pH 4.5 | miR-21 reporter
- CCn1c2ccccc2c2nn(C)c(=N)nc21
→ 0.7% | -15% | -2 | 4%
- CCN1CCN(S(=O)(=O)c2ccc(C)c([N+](=O)[O-])c2)CC1
→ 3.2% | 5% | 0 | -7%
- Nc1ccc(C(=O)c2cccs2)cc1
→ 3.3% | 2% | -16 | -37%
